HPGD block: qHTS Assay for Inhibitors of HPGD (15-Hydroxyprostaglandin Dehydrogenase). 150,000 compounds, 4.3% hits. Potency, µM, for inactives: at the highest dose activity change, negative = inhibition, hits mostly inhibitors. AID 894, 2007. purified HPGD, NADH fluorescence kinetic, PGE2 substrate; active = well fitted inhibition curve with a large enough effect (not every such curve was filed as active); inconclusive = small, poorly fitted or top-dose-only effect, or another doubt; inactive = no such curve, though single readings can be large or run the other way;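 also: top concentration of the series not given in the record; plate controls included wells without enzyme; inactives centre near -10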
Target sequence (P15428 whole entry, looked up): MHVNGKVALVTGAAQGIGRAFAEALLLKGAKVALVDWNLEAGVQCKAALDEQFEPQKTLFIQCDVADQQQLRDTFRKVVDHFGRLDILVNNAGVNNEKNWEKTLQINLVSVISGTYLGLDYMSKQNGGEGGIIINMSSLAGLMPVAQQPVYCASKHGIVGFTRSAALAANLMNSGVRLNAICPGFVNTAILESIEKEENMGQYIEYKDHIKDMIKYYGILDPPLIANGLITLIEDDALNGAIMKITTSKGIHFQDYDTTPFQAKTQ
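20 nM HPGD preincubated 15 min at room temperature with compound in 50 mM Tris-HCl pH 8, 0.01% Tween 20. Started with 1 mM NAD+ and 30 uM prostaglandin E2; NADH fluorescence (360/450 nm) read 5 times over 30-s intervals, last minus first.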
The depositor's hits bear a star; ? = inconclusive; & = joins results of further samples. % is scaled to controls: 0 for no effect and ±100 for the full control effect; potency is read from the fitted curve at half-maximal effect. A portion of the library; rates above refer to the full screens.

[1] N#C/C(=C/c1ccc(N2CCOCC2)c([N+](=O)[O-])c1)C(N)=O
  HPGD block: -9%
[2] CC(=O)c1c(N2CCN(c3ccccc3)CC2)nc(=S)n(-c2ccccc2)c1C
  HPGD block: -7%
[3] COc1ccc(N2CCN(Cc3nc(N)nc(Nc4ccccc4OC)n3)CC2)cc1
  HPGD block: -19%
[4] Cc1ccnc2c(N3C(=O)C4C5C=CC(C5)C4(C)C3=O)cccc12 (stereo unspecified)
  HPGD block: -9%
[5] CC(C)(C)C1CCC2(CC1)NC(=S)N(c1ccccc1)N2 (stereo unspecified)
  HPGD block: 11µM*
[6] O=C(CCCC(=O)N(CC(=O)NC1CCCC1)Cc1ccc(F)cc1)Nc1ccccn1
  HPGD block: -8%
[7] COC(=O)C1=C(C)N(c2cccc(C(C)=O)c2)C(=O)C1
  HPGD block: -7%
[8] Cc1cccc(NC(=O)CSc2nnc(CCC(=O)Nc3ccc(C)c(Cl)c3)n2C)c1
  HPGD block: 2%
[9] Cc1cccc(OCCNC(=O)c2ccc(Oc3ccc(C(F)(F)F)cc3[N+](=O)[O-])cc2)c1
  HPGD block: -24%
[10] CCOC(=O)C(C(=O)OCC)C(CC(=O)C1CC1)c1ccccc1 (stereo unspecified)
  HPGD block: -9%
[11] CC(=O)[C@]1(O)Cc2c(O)c3c(c(O)c2[C@@H](O[C@H]2C[C@H](N)[C@H](O)[C@H](C)O2)C1)C(=O)c1ccccc1C3=O
  HPGD block: -15%
[12] Cn1nc(-c2ccc(Cl)cc2)c2cc(C(=O)N3CCN(C(=O)c4ccco4)CC3)sc21
  HPGD block: ?
[13] CCOc1cc(NC(=O)c2ccco2)c(OCC)cc1NC(=O)CCC(=O)NCc1cccnc1
  HPGD block: -10%
[14] COC(=O)Nc1ccc2c(c1)ncn2C1CCCCC1
  HPGD block: -24%
[15] Cc1cc(NC(=O)c2ccc(S(=O)(=O)N(C)C)cc2)n(-c2ccccn2)n1
  HPGD block: -13%
[16] C/C(=N\NC(=O)c1ccc(Cn2cc(Br)cn2)o1)c1cccc(NC(=O)C(C)C)c1
  HPGD block: -10%
[17] O=C(Nc1ccc(Cl)cc1Cl)C1=Cc2ccccc2OC1
  HPGD block: -5%
[18] COc1ccc(Cc2nnc(N/N=C/c3ccccc3O)[nH]c2=O)cc1OC
  HPGD block: -16%
[19] CC(NC(=O)OC(C)(C)C)C(=O)N1CCCC1C(=O)NC(Cc1ccccc1)C(N)=O (stereo unspecified)
  HPGD block: -13%
[20] Cc1nc2scc(-c3cccs3)c2c(=O)[nH]1
  HPGD block: 22µM*
[21] COc1ccc(-n2ccnc2SCC(=O)NCc2ccc3c(c2)OCO3)cc1
  HPGD block: -8%
[22] COn1c(=S)[nH]c2ccccc2c1=O
  HPGD block: -15%
[23] O=C(Nc1ccccc1C(=O)N1CCCCC1)c1cccc(S(=O)(=O)N2CCOCC2)c1
  HPGD block: -16%
[24] COc1cc(OC)cc(-c2nc(-c3ccccc3OC)no2)c1
  HPGD block: -13%
[25] Cc1cc(C(=O)NCc2ccccc2)no1
  HPGD block: -11%

[26] Cn1cnnc1SCCNS(=O)(=O)c1ccccc1
  HPGD block: -9%
[27] COc1ccc(S(=O)(=O)Nc2ccccc2)cc1OC
  HPGD block: -4%
[28] Cc1cc(C)c2cc(CN(Cc3nnnn3C3CCCCC3)CC3CCCO3)c(=O)[nH]c2c1 (stereo unspecified)
  HPGD block: -3%
[29] Cc1ccc(C(=O)N/C(=C/C=C/c2ccccc2)C(=O)NCc2ccco2)cc1
  HPGD block: ?
[30] CC(NC(=O)Nc1ccc(Cl)c(Cl)c1)C(c1ccccc1)N1CCOCC1 (stereo unspecified)
  HPGD block: -10%
[31] CCOC(=O)N/C(N)=N/c1nc2ccccc2s1
  HPGD block: -11%
[32] CCN1C(=O)/C(=C/N(C)c2ccccc2)OC1=S
  HPGD block: -19%
[33] Cc1nc2cc(NS(=O)(=O)c3c(C)c(C)cc(C)c3C)ccc2s1
  HPGD block: -15%
[34] O=C(C[n+]1ccc(-c2nnc3n2CCC3)cc1)c1ccc(Cl)cc1
  HPGD block: ?
[35] C=CCSc1nc2c(c(=O)[nH]c(=O)n2C)n1C(C)C
  HPGD block: 18µM*
[36] COc1ccc(S(=O)(=O)NCC(=O)O)cc1C(=O)NC1CCCCC1
  HPGD block: -4%
[37] CCSc1nc(-c2ccccc2)c(C#N)c(=O)[nH]1
  HPGD block: 28µM*
[38] Cc1cccc(CSc2ncccc2C(=O)O)c1
  HPGD block: 5%
[39] COc1ccc(C2CC(=O)N3CN(Cc4ccco4)CSC3=C2C#N)cc1 (stereo unspecified)
  HPGD block: 13µM*
[40] COc1ccccc1C1N(c2cc(Cl)ccc2OC)C(=O)C2CCCN21 (stereo unspecified)
  HPGD block: 1%
[41] COC(=O)N1CCC2(CCCN(c3ccncc3)C2)CC1
  HPGD block: -9%
[42] c1ccc2c(Cc3c[nH]c4ccccc34)c[nH]c2c1
  HPGD block: -8%&-3%
[43] Cn1c(=O)c2c(ncn2CC(=O)N2CCCc3ccccc32)n(C)c1=O
  HPGD block: -10%
[44] c1ccc(-n2nnnc2SCc2cn3cccnc3n2)cc1
  HPGD block: ?
[45] CCOC(=O)c1ccc(NC(=O)CCNc2c(N3CCCC3)c(=O)c2=O)cc1
  HPGD block: -15%
[46] CCOC(=O)N1CCN(c2c(NCc3ccccn3)c(=O)c2=O)CC1
  HPGD block: -7%
[47] COc1cccc2c1[C@@H]1CN(CCCCn3c(=O)[nH]c4c(sc5ncc(-c6ccccc6)nc54)c3=O)C[C@@H]1CO2
  HPGD block: -10%
[48] OC(COCc1ccco1)CN1CCN(C(c2ccccc2)c2ccccc2)CC1 (stereo unspecified)
  HPGD block: 0%
[49] O=C(CN1CCOCC1)Nc1ccc(Br)cn1
  HPGD block: -2%
[50] CSc1nc2ccc3nc(NC(=O)C4COc5ccccc5O4)sc3c2s1 (stereo unspecified)
  HPGD block: -12%

[51] CCOC(=O)Cc1csc(NC(=O)CN(C)S(=O)(=O)c2cccc3cccnc23)n1
  HPGD block: -2%
[52] O=C(NCc1cccs1)c1noc2c1CCCCC2
  HPGD block: -26%
[53] COc1cccc(C2Nc3ccccc3C(=O)N2O)c1O (stereo unspecified)
  HPGD block: -11%
[54] CC(C)CC(NC(=O)C1CCCN1C(=O)OC(C)(C)C)C(=O)NCC(N)=O (stereo unspecified)
  HPGD block: -8%
[55] COc1ccc(-c2csc(N(Cc3ccccc3)C(=O)COc3ccc(Cl)cc3)n2)cc1
  HPGD block: -5%
[56] Cc1ccccc1NC(=O)C(c1ccccc1)C1CCCC1 (stereo unspecified)
  HPGD block: -7%
[57] Cc1cccc(NC(=O)Nc2cccc(C#N)c2)n1
  HPGD block: -7%
[58] CN1CCN(/C=C2\SC(=S)NC2=O)CC1
  HPGD block: -12%
[59] Cc1ccc(/C=C2/C(=O)N(c3ccccc3)C(=S)N2C)o1
  HPGD block: -23%
[60] CC(/C=C1\N=C(SCc2ccccc2)SC1=O)=C\c1ccccc1
  HPGD block: -19%
[61] Cc1ccccc1CS(=O)(=O)CCC(=O)NCCCN1CCOCC1
  HPGD block: -6%
[62] COCCN1C(=O)N[C@H](c2cccc(C(F)(F)F)c2)C(C(=O)OC)=C1C
  HPGD block: -5%&-5%
[63] Cc1ccc(CNC(=O)c2ccc(CNc3c(N4CCCC4)c(=O)c3=O)cc2)cc1
  HPGD block: 14µM*
[64] Cn1nc(C(F)(F)F)c2cc(C(=O)Nc3ccc(Cl)cc3)sc21
  HPGD block: -14%
[65] O=C(CCCN1C(=O)/C(=C/c2cccs2)SC1=S)NNC(=O)c1ccc(F)cc1
  HPGD block: 0%
[66] CCCCc1ccc(/C=C2/C(=O)ON=C2c2ccccc2)s1
  HPGD block: -4%
[67] Nc1ccc(-c2n[nH]c(=O)c3ccccc23)cc1N
  HPGD block: -12%
[68] CCNC(=S)NNC(=O)c1cc(C2CC2)nc2ccccc12
  HPGD block: -8%
[69] CC(C(=O)Nc1ccc(Cl)cc1)c1ncc(C(F)(F)F)cc1Cl (stereo unspecified)
  HPGD block: -2%
[70] COc1ccnc(NCc2cccnc2)c1C#N
  HPGD block: ?
[71] CCOC(=O)c1cn(-c2ccc([N+](=O)[O-])cc2)c2cc(Cl)c([N+](=O)[O-])cc2c1=O
  HPGD block: -3%
[72] COc1cccc(C2=NOC(C(=O)Nc3ccc(C(C)=O)cc3)C2)c1 (stereo unspecified)
  HPGD block: -24%
[73] Cc1ccc(/C=C(\C#N)C(=O)NCC2CCCO2)o1 (stereo unspecified)
  HPGD block: -16%
[74] COc1ccc(CCNC(=O)c2ccc3c(c2)NC(=O)C(N2CCOCC2)S3)cc1OC (stereo unspecified)
  HPGD block: -13%
[75] COc1cccc(C(=O)Nc2cc3c(cc2C(C)=O)OCCO3)c1
  HPGD block: -24%

[76] CCC(=O)Nc1nc(CC(=O)Nc2ccccc2OC)cs1
  HPGD block: -7%
[77] CCOC(=O)N1CCN(C(=O)CSc2nnc(-c3ccc(Cl)s3)o2)CC1
  HPGD block: -27%
[78] COc1ccc(C(=O)N/N=c2\oc3ccccc3cc2C(=O)NCc2ccccc2)cc1
  HPGD block: -5%
[79] CCOC(=O)C(=CNc1cccc(N)n1)C(=O)OCC
  HPGD block: -8%
[80] Cc1[nH]nc2c1/C(=N\O)CC(C)(C)C2
  HPGD block: -8%
[81] CCN=C1SC(C(=O)Nc2cccc(Br)c2)CC(=O)N1CC (stereo unspecified)
  HPGD block: -3%
[82] O=C1Nc2ccccc2N(O)N1c1cc(-c2cccc(Cl)c2)no1
  HPGD block: -17%
[83] COc1ccc(CN2C(=O)c3ccccc3C(/C=N/OCc3ccc(Cl)cc3)C2=O)cc1 (stereo unspecified)
  HPGD block: -26%
[84] CCOC(=O)N1CCN(C(=O)CN(C)S(=O)(=O)c2ccc3c(c2)C(C)(C)C(=O)N3C)CC1
  HPGD block: -1%
[85] Nc1nnc(-c2ccncc2)s1
  HPGD block: ?
[86] COC(=O)C(C)n1nc(C)n(-c2ccc(C)cc2)c1=O (stereo unspecified)
  HPGD block: -11%
[87] CN(C)/C=N/c1cc(=O)[nH]c(=O)n1C
  HPGD block: -12%&-14%
[88] c1ccc(-c2cc3c(ccc4nonc43)nn2)cc1
  HPGD block: -15%
[89] O=C(CCN1C(=O)COc2ccccc21)NCCN1CCN(c2ccccc2F)CC1
  HPGD block: -8%
[90] Cc1ccc(C(=O)NC2CC(C)(C)NC(C)(C)C2)cc1C
  HPGD block: -9%
[91] Cc1ccc(OCc2nnc(SCC(=O)Nc3nccs3)n2-c2ccccc2)cc1C
  HPGD block: -2%
[92] CCN(CC)c1ccc(/C=c2/sc3nnc(-c4ccccc4C)n3c2=O)cc1
  HPGD block: -9%
[93] C=CCc1cccc(OC)c1OCCOCCn1ccnc1
  HPGD block: -1%
[94] Cc1c(/C=C/C(=O)c2ccccc2O)cnn1C
  HPGD block: -8%
[95] CCC(Sc1nc2cc(OC)c(OC)cc2c(=O)n1Cc1ccco1)C(=O)NCCOC (stereo unspecified)
  HPGD block: -12%
[96] CCOC(=O)C1CCCN(Cc2ccc(OC)cc2OC)C1 (stereo unspecified)
  HPGD block: 7%
[97] Cc1cccc(N2C(=O)SC(N(C)c3ccccc3)C2=O)c1 (stereo unspecified)
  HPGD block: -13%
[98] O=C(Nc1ccccc1)Nc1ccc2snnc2c1
  HPGD block: -10%
[99] CCc1c(C)sc(NC(=O)c2cccs2)c1C(N)=O
  HPGD block: 8.9µM*
[100] COc1ccc(OC)c(NC(=O)CSCC(=O)O)c1
  HPGD block: -14%

[101] COC(=O)CCC(=O)OC1(C)C(=O)C2=CN(C(CO)CO)C(c3ccc(OC)cc3)=CC2=C(Br)C1=O (stereo unspecified)
  HPGD block: 1%
[102] O=C1c2ccccc2C(=O)N1CCCCN(C(=O)c1ccco1)c1ccc(Cl)cc1
  HPGD block: -10%
[103] O=C(NC1CCCCC1)C(c1ccccc1)N1CCc2ccccc21 (stereo unspecified)
  HPGD block: -13%
[104] CN(CC(O)COc1ccc(OCC(O)CN(C)C2CCCCC2)cc1)C1CCCCC1 (stereo unspecified)
  HPGD block: 6%
[105] CCc1cccc(C)c1NC(=S)NCc1ccc2c(c1)cc(C)n2C
  HPGD block: -21%
[106] CC(=O)NC1C(=O)N=C(SCC(=O)NC2CCCCC2)NC1=O (stereo unspecified)
  HPGD block: -6%
[107] COC(=O)c1ccccc1NC(=O)c1cc([N+](=O)[O-])nn1Cc1ccccc1
  HPGD block: 1%
[108] CCOc1ccc2nc(NC(=O)c3cnc(C)cn3)sc2c1
  HPGD block: -6%
[109] CCOC(=O)c1cn[nH]c1N
  HPGD block: -7%
[110] COc1cc(/C=C(\C#N)c2ccccn2)ccc1OCC(=O)Nc1ccc(Br)cc1
  HPGD block: ?
[111] Cn1cccc1C(=O)N1CCC[C@@]2(CCN(c3ccccn3)C2)C1
  HPGD block: -15%
[112] COC(=O)C1=CN(C)C=C(C(=O)OC)C1c1ccc(O)c(OC)c1
  HPGD block: -23%
[113] Cc1ccc(/C=N/NC(=O)Cc2cccn2C)s1
  HPGD block: 7.1µM*
[114] O=C(NNC(=S)Nc1ccc(Br)cc1Cl)c1ccncc1
  HPGD block: -20%
[115] c1ccc2c(c1)c1ccccc1n2Cn1c2ccccc2c2ccccc21
  HPGD block: -13%
[116] O=C1NCCCC1C(=O)Nc1cccc(C(F)(F)F)c1 (stereo unspecified)
  HPGD block: -1%
[117] O=C(Nc1nc(-c2ccccc2Cl)cs1)c1cccnc1
  HPGD block: -19%
[118] CCN(CC)S(=O)(=O)c1cc(C(=O)Nc2nncs2)c(Cl)cc1Cl
  HPGD block: -1%
[119] O=C(CNS(=O)(=O)c1c(Cl)cccc1Cl)OCc1csc(-c2ccccc2)n1
  HPGD block: -11%
[120] Cn1cc(S(=O)(=O)N2CCc3ccccc3C2)c(=O)n(C)c1=O
  HPGD block: -8%
